Bioassay records from PubChem BioAssay.
INS promoter inh = inhibitors of insulin promoter-driven GFP, primary screen, imaging, TRM-6 cells (human fetal islet line), eGFP reporter, cell count; reporter expression induced with tamoxifen; inhibition, % at 2 µM; actives 0.9% (n = 130,000); AID 1273, 2008;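 active means inhibition above the mean plus 3 SD, with well images judged a real hit on visual review, cut at about 60% in these data, passing the limit was not always enough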
GALR2 agonist = GALR2 receptor agonists, primary screen, cell-based; GALR2-expressing cells, agonist activation read-out; activation, %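 (tested at 5 µM)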; AID 803, 2007; actives 0.48% (n = 140,000); Galanin receptor type 2 (Homo sapiens), O43603;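 active means above mean plus 3 SD of all compounds, about 5% in these data, not always enough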;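 further: 0% = vehicle buffer wells and 100% = reference agonist at full effect; tested in CHO reporter cells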
HSV augment = enhancers of HSV replication in host cells, fold increase, host cell viability | HSV replication augmentation in cells | actives 0.005% (n = 220,000) | AID 1956, 2009 | maximum fold increase;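 active means peak rise of 1.5-fold or more in the series; tested in PC3 cells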;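 further: first round at 10 µM; read as green reporter fluorescence; hits show the peak of a series up to 25 µM; 1 = signal of infected wells without compound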
PKD1 inh = inhibitors of human PKD1 kinase, biochemical, fluorescence polarization | Serine/threonine-protein kinase D1 (Homo sapiens), Q15139 | PKD1 kinase fluorescence polarization assay | inhibition, %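 (about 10 µM by stock and volumes)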 | actives 0.056% (n = 200,000) | AID 797, 2007;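 active means inhibition of 50% or more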;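 further: controls were vehicle for no effect and a reference inhibitor for full effect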
Target sequence (Q15139 whole entry, looked up): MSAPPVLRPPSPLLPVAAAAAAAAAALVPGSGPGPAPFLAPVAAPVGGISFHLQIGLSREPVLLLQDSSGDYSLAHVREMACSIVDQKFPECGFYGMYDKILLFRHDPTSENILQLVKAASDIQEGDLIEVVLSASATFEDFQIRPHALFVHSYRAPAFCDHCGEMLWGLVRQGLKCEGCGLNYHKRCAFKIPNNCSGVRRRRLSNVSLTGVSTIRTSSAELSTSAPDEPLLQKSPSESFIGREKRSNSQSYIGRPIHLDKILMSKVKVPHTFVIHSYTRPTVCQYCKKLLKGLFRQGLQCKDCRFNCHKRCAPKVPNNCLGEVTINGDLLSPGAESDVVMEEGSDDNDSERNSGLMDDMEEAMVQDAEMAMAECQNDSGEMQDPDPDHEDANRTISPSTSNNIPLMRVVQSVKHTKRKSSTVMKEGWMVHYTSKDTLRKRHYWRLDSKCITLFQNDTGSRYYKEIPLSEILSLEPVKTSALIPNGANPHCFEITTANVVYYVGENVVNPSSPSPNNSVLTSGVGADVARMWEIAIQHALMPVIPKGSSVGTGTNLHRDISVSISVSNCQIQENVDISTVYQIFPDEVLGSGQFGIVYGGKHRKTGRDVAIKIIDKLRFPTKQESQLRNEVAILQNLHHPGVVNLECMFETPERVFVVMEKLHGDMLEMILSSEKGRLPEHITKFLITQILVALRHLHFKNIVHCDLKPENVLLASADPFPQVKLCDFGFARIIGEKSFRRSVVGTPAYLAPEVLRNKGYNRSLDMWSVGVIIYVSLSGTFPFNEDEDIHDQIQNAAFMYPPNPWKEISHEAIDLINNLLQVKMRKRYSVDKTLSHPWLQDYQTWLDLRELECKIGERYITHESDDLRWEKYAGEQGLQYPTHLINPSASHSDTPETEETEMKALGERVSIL
RGS16-Gao = modulators of RGS16 binding to Galphao, primary screen, biochemical, human proteins, multiplexed bead flow cytometry. actives 0.38% (n = 220,000). bead-based flow cytometry RGS16-Galphao binding, fluorescence; actives lie on both sides. Regulator of G-protein signaling 16 (Homo sapiens) + Guanine nucleotide-binding protein …. binding response (% of control), % at 10 µM;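 active means below 25% or above 175%, edge rows of some plates excepted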;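 further: Galphao activated by GDP with aluminum fluoride before binding; 100% = wells without compound and 0% = beads without RGS; some results beyond the cut were filed as inactive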
INS promoter inh cell count = further read-out of INS promoter inh, marked with its call; normalized cell count, %; measured here: cell count, toxicity; reference of the scale not given here;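 cells exposed to compound for 48 h; stained nuclei by imaging scaled within each plate; lower means fewer cells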
HSV augment primary fold = second read-out of HSV augment, no call of its own (marks repeat the call); fold increase; compound at 10 µM; measured here: primary screen fold increase 10 uM; tested in PC3 cells;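 GFP signal in the first replicate; 1 = infected wells without compound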
Numbers without * were called inactive; i = inactive; nt = not tested or not shown.

SMILES | INS promoter inh | INS promoter inh cell count | GALR2 agonist | HSV augment | HSV augment primary fold | PKD1 inh | RGS16-Gao
CC1CC(C)CN(C(=O)CCNS(=O)(=O)c2cccs2)C1 (stereo unspecified) | -64 | 86 | -0.8 | i | 0.97 | -12 | 111
Cn1c(Nn2cnnc2)nc2ccccc21 | -121 | 112 | -1.1 | i | 1 | -6 | 95
O=S(=O)(N/N=C\c1cccn1-c1ccccc1)c1ccc2ccccc2c1 | -13 | 58 | -2.0 | i | 1 | 1 | 111
COc1cc(CNC2CCCc3ccccc32)cc(OC)c1OC (stereo unspecified) | 12 | 65 | -2.1 | i | 1 | -1 | 114
COc1ccc(C(=O)Nc2ccc(Cl)cc2C(=O)NCc2ccco2)cc1OC | -73 | 126 | -0.6 | i | 0.92 | -5 | 105
CC(C)C(NC(=O)/C=C/c1cccc([N+](=O)[O-])c1)C(C)C | 3 | 129 | -1.5 | i | 0.93 | -5 | 108
CCCCNC(=O)C1CCC(CNS(=O)(=O)c2ccc(C)cc2)CC1 (stereo unspecified) | 8 | 113 | nt | i | 1 | 4 | 97
O=S(=O)(Nc1ccc(-c2cn3c(n2)SCC3)cc1)c1cccs1 | 13 | 109 | nt | i | 0.99 | 2 | 92
O=C(Cc1ccccc1)NNC(=S)NC(=O)c1cccs1 | nt | nt | nt | i | 0.9 | nt | 95
O=C(/C=C/c1ccccc1)NNC(=O)c1cccnc1 | 42 | 116 | -1.9 | i | 0.91 | -9 | 95
CN(C)c1cccc(C(=O)N/C=C/n2cnc3cc(C(F)(F)F)ccc32)c1 | nt | nt | nt | i | 0.98 | -5 | 105
COc1ccc(C(=O)NCc2cccnc2)cc1 | -20 | 99 | -1.6 | i | 0.92 | -6 | 95
Cc1ccc(OCC(=O)Nc2ccc(N3CCN(S(C)(=O)=O)CC3)cc2)cc1C | nt | nt | nt | i | 0.95 | 2 | 102
NC(=O)C1CCN(C(=O)COc2cccc3cccnc23)CC1 | nt | nt | nt | i | 0.92 | 3 | 101
O=C(O)/C=C/C(=O)Nc1ccc(SC(F)(F)C(F)(F)C(F)(F)F)cc1 | nt | nt | nt | i | 0.99 | 3 | 100
Cn1cc(Br)c(-c2cccc(NC(=O)CC(C)(C)CC(=O)O)c2)n1 | nt | nt | nt | i | 0.88 | nt | 103
COc1ncnc2c1N=C1CC(C)(C)CC(N)=C1S2 | nt | nt | -1.8 | nt | nt | -2 | 55
COCCCNC(=O)CCCOc1ccccc1 | nt | nt | -0.3 | i | 0.84 | -12 | 102
Cc1cc(C)nc(NC(=O)c2ccc(Cl)cc2[N+](=O)[O-])c1 | 0 | 101 | -1.2 | i | 0.97 | -12 | 107
COc1ccc(Nc2nc(-c3cccs3)cs2)c(OC)c1 | i | 58 | -3.6 | i | 0.91 | -7 | 103
COc1ccc2cc(C3OCCO3)c(Cl)nc2c1 | nt | nt | nt | i | 1 | -8 | 113
CCN(C(=O)CN1CCN(S(=O)(=O)c2cc(Cl)ccc2Cl)CC1)c1c(N)n(Cc2ccccc2)c(=O)[nH]c1=O | 22 | 88 | -1.7 | i | 0.95 | 6 | 101
CCn1ncc(C2=NOC(C(=O)Nc3ccccc3C(=O)OC)C2)c1C (stereo unspecified) | -23 | 88 | -0.2 | i | 0.77 | -9 | 104
O=c1c2ccccc2nc(SCc2cc(F)ccc2F)n1C1CCCC1 | -15 | 76 | -0.4 | i | 0.58 | -3 | 85
O=C1CCCC2=C1C(c1ccccn1)Nc1ccc(C(=O)c3ccccc3)cc1N2 (stereo unspecified) | -13 | 94 | -0.3 | i | 0.96 | -8 | 73
Cc1ccnc(NS(=O)(=O)c2cc([N+](=O)[O-])ccc2C)c1 | -13 | 112 | nt | i | 0.91 | 1 | 122
Brc1ccc(/C=N/n2cnnc2)s1 | nt | nt | nt | i | 0.93 | nt | 105
CCCCN(CCCC)CC1OCc2ccccc2CO1 | 33 | 86 | -2.4 | i | 0.86 | 7 | 95
Cc1nc2nc(SCC(=O)NCCCN3CCOCC3)nn2c(C)c1Cc1ccccc1 | -54 | 121 | nt | i | 0.84 | -2 | 97
COc1ccc(C(C#N)=C2C=CC(=NO)C=C2)cc1 | nt | nt | nt | i | 0.87 | nt | 99
Cc1ccc(/C=N/Nc2ccnc3cc(Cl)ccc23)c(C)c1 | nt | nt | 14* | i | 0.77 | 0 | 101
O=C(Nc1nc(-c2ccccc2)c(C(=O)c2ccccc2)s1)c1ccc(S(=O)(=O)N2CCCCC2)cc1 | 12 | 165 | 0.0 | i | 0.97 | -3 | 100
CCN(CC(=O)Nc1cccc(S(=O)(=O)N2CCCC2)c1)CC(=O)Nc1ccccc1OC | -80 | 131 | nt | i | 0.89 | 3 | 107
CCn1c(-c2ccccc2)c(C(=O)CCl)c2ccccc21 | i | 1 | nt | i | 1.1 | 4 | 99
O=C(NCCc1csc(-c2ccccc2)n1)c1ccco1 | nt | nt | nt | i | 0.98 | nt | 100
CCOc1ccc(-c2nnn(CC(=O)NCc3cccs3)n2)cc1 | nt | nt | -0.6 | i | 0.74 | 6 | 72
COc1ccc(N/N=C(/N=Nc2nc(C)cc(=O)[nH]2)c2ccccc2)cc1 | -6 | 97 | -2.5 | i | 0.66 | 0 | 96
Cc1cc(NC(=O)c2cccs2)no1 | nt | nt | nt | i | 1 | nt | 98
CCOC(=O)CSC1=C(C#N)C(c2ccco2)C(C(=O)OCc2ccccc2)=C(C)N1 (stereo unspecified) | 50 | 98 | -1.2 | i | 1.1 | -4 | 103
CC(=O)NCCNC(=O)c1ccc(-n2c(C)ccc2C)cc1 | nt | nt | nt | i | 0.84 | -1 | 103
CCCCCCNC(=O)CC(NS(=O)(=O)c1ccc(NC(C)=O)cc1)C(C)C (stereo unspecified) | nt | nt | -2.5 | i | 1 | -3 | 105
CCN(CC)S(=O)(=O)c1ccc(NC(=O)c2ccc(N(C)S(C)(=O)=O)cc2)cc1 | -110 | 125 | -1.6 | i | 0.85 | 1 | 95
Cc1ccc(N2C(=O)C3C(C2=O)N2CCCN2C3c2ccccc2)cc1C (stereo unspecified) | nt | nt | nt | i | 1.2 | 2 | 102
COc1ccc(N2C(=O)N(Cc3ccc(C)cc3)c3ccccc3S2(=O)=O)cc1 | -27 | 78 | nt | i | 1 | -1 | 95
COc1cccc(-n2c(CN3CCN(c4cccc(C)c4)C(C)C3)nc3ccc([N+](=O)[O-])cc3c2=O)c1 (stereo unspecified) | 22 | 131 | -0.2 | i | 0.94 | -3 | 111
COc1ccc(S(=O)(=O)Nc2ccccc2N2CCOCC2)cc1[N+](=O)[O-] | nt | nt | nt | i | 1 | nt | 101
CC1CCc2c(sc3nc(CN4CCOCC4)nc(NS(=O)(=O)c4cccc([N+](=O)[O-])c4)c23)C1 (stereo unspecified) | nt | nt | -1.5 | nt | nt | 4 | 97
CCCCC(NS(=O)(=O)c1ccc(OC)cc1)C(=O)O (stereo unspecified) | -12 | 70 | -1.4 | i | 0.88 | -13 | 102
C=CCn1c(-c2cc(Cl)ccc2OC)n[nH]c1=S | nt | nt | -1.7 | i | 0.88 | 0 | 92
CC(=O)Nc1nonc1-c1ccccc1 | nt | nt | -1.0 | i | 0.9 | -15 | 102
COc1cc(/C=C/C(=O)c2ccc(NS(=O)(=O)c3ccc(C)cc3)cc2)ccc1OC(F)F | 7 | 134 | 0.2 | i | 0.78 | -7 | 103
O=C(COC(=O)COc1ccc(Br)cc1)NCCC1=CCCCC1 | nt | nt | -0.8 | i | 1.1 | -13 | 106
CN(CC(=O)NC(=O)NCc1ccco1)Cc1nc2ccccc2c(=O)[nH]1 | 12 | 100 | -1.2 | i | 0.94 | -5 | 97
COc1cc(C)c(S(=O)(=O)N2CCCC2)cc1C | 21 | 98 | -0.5 | i | 0.99 | -1 | 98
O=C(O)c1cccnc1Sc1ccc(Cl)cc1 | nt | nt | nt | i | 0.86 | -8 | 99
O=C(O)CCc1ccc(-c2ccc(F)cc2)n1CC(=O)O | 10 | 145 | -0.8 | i | 0.93 | 0 | 98
CCCOc1ccc(-c2cnc(N)s2)cc1 | -18 | 112 | -1.9 | i | 0.96 | 5 | 100
COC(=O)c1cc(CC(=O)c2ccc(O)cc2O)c(C)o1 | 14 | 81 | -4.9 | i | 0.96 | 9 | 97
CCOC(=O)c1cnc(SC)nc1Oc1cccc(NS(=O)(=O)c2ccccc2)c1 | 30 | 91 | -0.4 | i | 1.1 | -4 | 113
Cc1cc(C)c(S(=O)(=O)N(CC(=O)NCc2cccnc2)C2CCCCC2)c(C)c1 | -71 | 98 | 0.7 | i | 0.84 | -3 | 86

Carrying on:
SMILES | INS promoter inh | INS promoter inh cell count | GALR2 agonist | HSV augment | HSV augment primary fold | PKD1 inh | RGS16-Gao
CCOC(=O)c1cn(-c2c(Cl)cccc2Cl)c2cc(Cl)c([N+](=O)[O-])cc2c1=O | 21 | 102 | -3.4 | i | 0.63 | -6 | 103
CCn1cc(C(=O)N2CCN(c3cccc(Cl)c3)CC2)c2cc(OC)c(OC)cc2c1=O | 46 | 126 | -1.5 | i | 0.85 | 13 | 68
CC(C)CC1c2[nH]c3ccccc3c2CCN1C(=O)C1CCOCC1 (stereo unspecified) | nt | nt | nt | i | 1.1 | 1 | 110
O=C(NCCc1ccccc1)C(=O)NCc1ccncc1 | 0 | 131 | -0.5 | i | 1 | 5 | 109
O=C(O)CCCN(Cc1cccc(Br)c1)S(=O)(=O)c1ccc(Br)cc1 | nt | nt | nt | i | 1.1 | -4 | 124
CC(OC(=O)CN1C(=O)C2C3C=CC(C4CC34)C2C1=O)C(=O)c1ccccc1 (stereo unspecified) | nt | nt | nt | i | 1.1 | nt | 86
CCn1cc(CN2CCCC(CO)(Cc3cccc(Cl)c3)C2)cn1 (stereo unspecified) | nt | nt | nt | i | 0.97 | -8 | 103
COc1ccc(C2/C=C\CN(C(=O)C3CCCC3)CC(=O)N2Cc2ccc(F)cc2)cc1 (stereo unspecified) | nt | nt | nt | i | 0.85 | nt | 98
OC1(C#CCN2CCCC2)c2ccccc2-c2ccccc21 | nt | nt | nt | i | 0.8 | nt | 95
CC1(C)Cc2ccccc2-c2nc(NCCCO)n(-c3ccccc3)c(=O)c21 | -16 | 85 | -0.6 | i | 0.82 | -1 | 100
COc1ccc(/C=N/NC(=O)Nc2ccc3nsnc3c2)c(OC)c1 | nt | nt | nt | i | 0.98 | -6 | 104
Fc1ccccc1CNC(=S)Nc1cccc(C(F)(F)F)c1 | 14 | 81 | -1.0 | i | 0.95 | -4 | 105
O=C(NC(=S)Nc1ccccc1O)c1ccccc1Cl | nt | nt | nt | i | 0.99 | -6 | 96
CCCCn1c(SCC(=O)Nc2sc3c(c2C(N)=O)CCC3)nnc1-c1ccccc1 | -17 | 208 | 0.5 | i | 1 | -6 | nt
O=C(Nc1c(-c2ccccc2)nc2ncccn12)c1cc2ccccc2oc1=O | 22 | 126 | -2.1 | nt | nt | -4 | 117
O=C(NC1CC1)c1ccc2c(c1)C1C3CCC(C3)C1C(c1ccccc1)N2 (stereo unspecified) | nt | nt | -1.6 | i | 0.83 | -3 | 44
COc1ccc(-c2c[n+](CC(=O)OC3CC(C)CCC3C(C)C)c3n2CCC3)cc1 (stereo unspecified) | nt | nt | nt | i | 0.81 | -8 | 100
Cc1[nH]n(-c2cccc(Cl)c2)c(=O)c1-c1ccccc1 | 37 | 159 | -0.9 | i | 0.87 | 1 | 106
CN(C)c1ccc(N=Nc2ccccc2C(=O)OCC(=O)NCC2CCCCC2)cc1 | -7 | 86 | -1.1 | i | 0.85 | 7 | 127
CN(CC(=O)Nc1ccc(Cl)c(Cl)c1)Cc1nnc(-c2ccc(F)cc2)o1 | nt | nt | nt | i | 0.91 | 1 | 97

Profiles as entered above. Values in the order: INS promoter inh | INS promoter inh cell count | GALR2 agonist | HSV augment | HSV augment primary fold | PKD1 inh | RGS16-Gao
`CC(C)CC1c2[nH]c3ccccc3c2CCN1C(=O)C1CCOCC1` (stereo unspecified) is listed with nt | nt | nt | i | 1.1 | 1 | 110
`O=C(NC1CC1)c1ccc2c(c1)C1C3CCC(C3)C1C(c1ccccc1)N2` (stereo unspecified) is listed with nt | nt | -1.6 | i | 0.83 | -3 | 44

Outcome played no part in choosing rows; 1.2% or so of the library scored in one or more.
